Compound activity deposited in PubChem by ICCB-Longwood Screening Facility, Harvard Medical School.
HCMV NEC inh: cytomegalovirus nuclear egress complex inhibition; inhibition, % (test concentration not listed); AID 1918969; actives 0.15% (n = 190,000); HTRF UL50-UL53 interaction, normalized percent inhibition;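 active means both replicates at 50% or more, plus weaker picks with an unusually low signal ratio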;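 further: stock transfer was 100 nL into about 20 µL; 0% = negative control wells and 100% = wells with untagged competitor protein; inactives centre near -12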
Sa growth 42C: S. aureus growth inhibition; S. aureus RN4220 growth, OD600, 20 h, 42 °C; hits give low values; relative growth, % (no concentration beside the values); actives 0.53% (n = 170,000);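 active means growth at 42 °C up to 50% and 20 or more points under that at 30 °C, or under 10% at both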;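 further: 300 nL library stock went into each well; scaled to the means of positive and negative controls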
GIV-Gai inh: blocks GIV peptide binding to rat Galpha-i3. P08753. Galpha-i3/FITC-GIV peptide fluorescence polarization, 90 min; hits give low values; scaled: aluminum fluoride 0%, vehicle 100%. percent of control (FP), % (concentration not given with the values). actives 0.42% (n = 210,000). AID 1224905;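 active means replicate mean at 85% of control or lower, very high polarization wells dropped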;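 further: wells of about 15 µL received 100 nL stock; the first replicate is given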
Target sequence (P08753 whole entry, looked up): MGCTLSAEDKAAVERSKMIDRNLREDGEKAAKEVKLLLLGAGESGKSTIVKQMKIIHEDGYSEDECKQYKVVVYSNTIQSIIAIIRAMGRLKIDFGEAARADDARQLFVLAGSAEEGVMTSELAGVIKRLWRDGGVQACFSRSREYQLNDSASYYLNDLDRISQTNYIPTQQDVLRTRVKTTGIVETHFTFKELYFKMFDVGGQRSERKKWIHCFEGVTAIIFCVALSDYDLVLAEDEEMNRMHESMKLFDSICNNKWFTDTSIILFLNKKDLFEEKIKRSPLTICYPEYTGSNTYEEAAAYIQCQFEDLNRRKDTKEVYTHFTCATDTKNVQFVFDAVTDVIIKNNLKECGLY
Sa growth 42C second temp: further read-out of Sa growth 42C, marked with its call; relative growth, %; measured here: growth at 30 °C;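 optical density after 20 h as mean of two plates; 100% = untreated growth and lower means inhibition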
Numbers without * were called inactive; x = not tested or not shown; & = joins results of further samples.

SMILES	HCMV NEC inh	Sa growth 42C	Sa growth 42C second temp	GIV-Gai inh
CC(C1CC1)N(C(=O)c1ccccc1)c1ccccc1 (stereo not given)	-2	115	69	106
O=C(Nc1ccc(Cl)cc1)c1cnn2c(C(F)(F)F)cc(C(F)(F)F)nc12	-10	80	85	100
Cc1ccc(N(Cc2nc3nc(C)cc(=O)n3[nH]2)C(=O)c2ccc(F)cc2)cc1	-16	x	x	103
COc1cccc(CN2c3cccc4cccc(c34)S2(=O)=O)c1	x	142	94	105
CCN(CC)C(=O)CN1CCC(c2nc3ccccc3[nH]2)CC1	-46	77	89	102
O=C(NC1CCCCC1)c1cnn(-c2ccc(Cl)cc2)c1	-18	x	x	104
O=C(NCC(F)(F)F)c1cccnc1Nc1cccc(C(F)(F)F)c1	-26	82	66	x
O=C(Nc1ccccc1F)c1nc(SCc2ccc(F)cc2)ncc1Cl	-15	105	91	103
CCc1ccccc1NC(=O)Cn1nnc(C(=O)NCc2ccco2)c1N	-23	106	91	106
C#Cc1cccc(Nc2ncnc3cc(OCCOC)c(OCCOC)cc23)c1	-22&-1&-3&-9	93	88	95
COc1ccc(COCC(O)CN(C)Cc2ccc3c(c2)OCCO3)cc1 (stereo not given)	-4	97	94	x
CCCNc1nc2c(c(=O)n(C)c(=O)n2C)n1CC(O)COc1ccccc1 (stereo not given)	2	99	92	100
CCn1c(=O)cc(OCC(=O)N2CCN(c3ccc(C)cc3)C(C)C2)c2ccccc21 (stereo not given)	-12	111	77	105
CCOc1ccc(CNC(=O)c2cc3c(=O)oc4ccc(C)cc4c3s2)cc1	-4	107	80	106
CC1CCN(S(=O)(=O)c2ccc3c(c2)CCN3C(=O)NCc2ccccc2)CC1	0&-2	83	97	104&105
COc1cc2ncc3c(-c4ccccc4)nn(-c4ccc(C)cc4)c3c2cc1OC	x	105	87	100
C=CCN1CCN(C(c2ccccc2Cl)c2nnnn2C2CCCCC2)CC1 (stereo not given)	-14	100	95	99
CCn1nc(C)c2[nH]c(=S)n(Cc3ccc(Cl)cc3)c(=O)c21	-14	x	x	98
CCOC(=O)c1sc2cccc(F)c2c1S(=O)(=O)Nc1ccccc1F	x	153	74	103
Cc1cccc(C)c1OCCSc1nc2ccccc2n1CC(=O)O	-37	105	99	105
Cc1ccc(-n2ncc3c(N4CCN(C)CC4)ncnc32)cc1	x	112	91	100
O=C(/C=C/c1ccccc1)C1CC1	-3	97	96	x
CCOC(=O)Nc1ccc2c(COC(=O)c3cnc(Cl)c(Cl)c3)cc(=O)oc2c1	-13	91	80	x
CCC1CCCCN1C(=O)c1noc2c1CC(C(C)(C)C)CC2 (stereo not given)	-30	58	50	100
O=C(Oc1cc(Cl)cc(Cl)c1)c1ccc(-c2ccccn2)s1	-13	94	80	106

The final 7 records of the section before come first, to join the parts.
SMILES	HCMV NEC inh	Sa growth 42C	Sa growth 42C second temp	GIV-Gai inh
CCOC(=O)c1sc2cccc(F)c2c1S(=O)(=O)Nc1ccccc1F	x	153	74	103
Cc1cccc(C)c1OCCSc1nc2ccccc2n1CC(=O)O	-37	105	99	105
Cc1ccc(-n2ncc3c(N4CCN(C)CC4)ncnc32)cc1	x	112	91	100
O=C(/C=C/c1ccccc1)C1CC1	-3	97	96	x
CCOC(=O)Nc1ccc2c(COC(=O)c3cnc(Cl)c(Cl)c3)cc(=O)oc2c1	-13	91	80	x
CCC1CCCCN1C(=O)c1noc2c1CC(C(C)(C)C)CC2 (stereo not given)	-30	58	50	100
O=C(Oc1cc(Cl)cc(Cl)c1)c1ccc(-c2ccccn2)s1	-13	94	80	106
Clc1ccc(OCCCN2CCN(Cc3ccccc3)CC2)cc1	0	103	86	108
Cc1csc2nc(-c3ccc(NS(=O)(=O)c4cccc(F)c4)cc3)cn12	x	99	97	101
CCOc1ccc(N2C(=O)NC(=O)/C(=C\c3cc(Cl)c(OCC(=O)O)c(Cl)c3)C2=O)cc1	-22	x	x	102
Cc1cc(C)n(-c2nc3cc(Cl)ccc3nc2NC2CCCCC2)n1	-1	x	x	108
CC1CN(C(=O)COC(=O)c2ccc(I)cc2)CC(C)O1 (stereo not given)	-22	111	87	x
CCCN(CC1CC1)C(=O)Nc1ccccc1C	8	99	102	103
COc1ccc(S(=O)(=O)NCCNc2nc3cc(C)cc(C)c3cc2C#N)cc1	-14	92	98	97
COCCCn1c(SCc2ccc(F)cc2)nc2c(-c3ccccc3)cn(C)c2c1=O	-21	x	x	101
O=C(Nc1nc(-c2ccccc2)cs1)c1cc2cc(Br)ccc2oc1=O	7	x	x	108
O=C(NCCc1ccccc1)c1ccc(C(=O)c2ccccc2)o1	-51	99	94	x
CCC(C)N(Cc1nc2ccccc2c(=O)[nH]1)C(=O)/C=C/c1ccco1 (stereo not given)	-10	93	88	x
CN(C)C1(CNC(=O)COc2cccc(Cl)c2)CCCCC1	-19	115	90	109
Cc1ccccc1C(=O)Nc1nnc(S(=O)(=O)N2CCc3ccccc32)s1	9	99	100	109
O=S(=O)(c1ccc(OC(F)(F)F)cc1)N1CCN(S(=O)(=O)c2cccs2)CC1	-29	95	92	x
COC(=O)c1sccc1S(=O)(=O)N(CC(=O)Nc1cc(C)ccc1C)c1ccc(C)c(C)c1	x	87	88	96
O=C(COC(=O)Cc1c(Cl)cccc1Cl)NCc1ccco1	-29	112	84	x
CCN1CCN(c2nc3c(S(=O)(=O)c4ccc(Br)cc4)nnn3c3ccsc23)CC1	x	96	97	105
COC(=O)c1cc2occc2n1CC(=O)N(C)C1CCCCC1	x	109	91	113
O=C1C2C3C=CC(C3)C2C(=O)N1Cc1ccco1 (stereo not given)	x	103	95	95
CCc1ccc(Nc2nnc(-c3cc4cc(OC)ccc4oc3=O)s2)cc1	x	91	102	114
CCOc1ccc(-c2cc(NC(=O)Nc3ccc(F)cc3)c(C(=O)OC)s2)cc1	x	105	77	101
CCCc1cc(=O)oc2c(C)c3occc(=O)c3cc12	-31	x	x	103
NC(=S)Cc1nc2n(n1)Cc1ccccc1-2	12	94	95	x
CCNc1nc(NCC)nc(N(C#N)CC)n1	-24	108	99	104
O=C(CN1C(=O)c2cccc3cccc(c23)C1=O)N1CCN(CCN2C(=O)C3C4C=CC(C4)C3C2=O)CC1 (stereo not given)	-120	x	x	101
SMILES	HCMV NEC inh	Sa growth 42C	Sa growth 42C second temp	GIV-Gai inh
O=C(CCCn1c(=O)oc2ccccc21)Oc1ccc2c(c1)OCO2	14	87	93	x
COc1cccc(NC(=O)N2CCN(C/C=C/c3ccccc3)CC2)c1	26	96	100	108
COc1cccc(OC)c1/C(O)=C(\C#N)c1nc2ccccc2s1	-24	1.4*	-1.0*	113
O=C(Nc1cccc2nsnc12)c1cnccn1	-33	x	x	96
CCOC(=O)C1=C(C)NC(C(=O)NCc2cccc(OC)c2)CS1 (stereo not given)	x	92	91	105
O=C(Nc1ccc2c(c1)OCO2)c1nnc(C(=O)N2CCCC(C(=O)N3CCCCC3)C2)s1 (stereo not given)	-44	x	x	102
Cc1nnc(NC(=O)c2cc(=O)c3cc(Cl)c(C)cc3o2)s1	-9	x	x	91
Cn1c(=O)sc2cc(NS(=O)(=O)c3ccc(C(C)(C)C)cc3)ccc21	x	109	86	104
CCOC(=O)Cn1cnc(=O)c(C#N)c1C	-4	105	113	100
COC(=O)Cc1nc(NC(=O)c2cc(C)oc2C(F)(F)F)sc1C	-15	90	94	95
COc1ccc2c(CC(=O)OCC(=O)c3ccccc3)coc2c1	-36	86	97	x
Brc1cccc(-c2nnn3c2nc(NCc2ccc4c(c2)OCO4)c2ccccc23)c1	6	95	99	111
CC1CN(C(=O)Nc2ccc(Cl)cc2)c2ccccc2O1 (stereo not given)	x	93	74	101
COc1ccc2c(c1)c(-n1cccc1)c1n2CC(C)(C(=O)NC2CCCCC2)N(C(C)C)C1=O (stereo not given)	-16	x	x	100
CCOc1ccc(-c2nn(-c3ccc(F)cc3)c3c2cnc2ccc(F)cc23)cc1	-10	102	93	105
O=C(Cc1c(C(=O)O)[nH]c2ccccc12)NCCCN1CCCCCC1	-7	130	83	99
CCOC(=O)c1[nH]c(C)c(C(=O)OCc2nnc(-c3ccc(Cl)cc3)o2)c1C	-4	110	99	x
Cc1nc2nc3c(cn2n1)C(=O)CCC3	10	x	x	99
O=C(c1ccccc1)c1nnn(-c2ccccc2)c1Nc1ccccc1	-3	119	96	x
Cc1ccn2c(Nc3c(C)cccc3C)c(-c3ccsc3)nc2c1	6	108	93	105
O=C(NC1CC(=O)N(c2ccc(F)cc2)C1)c1ccc(S(=O)(=O)N2CCCCC2)cc1 (stereo not given)	x	114	81	96
CCCCN1CC(c2nc3ccccc3n2CCCCOc2cc(C)cc(C)c2)CC1=O (stereo not given)	-18	125	92	104
N#CC1=C(N)N(c2sc3c(c2C#N)CCCCC3)C2=C(C(=O)CCC2)C1c1ccccc1 (stereo not given)	-10	114	83	x
CCOc1ccc(NC2=CC(=O)CC(C)(C)C2)cc1	-8	109	87	x
COC(=O)CSc1nc(N2CCOCC2)c2c(c1C#N)CC(C)(C)SC2	x	113	88	104

3 of these compounds, set out differently.
| SMILES | HCMV NEC inh | Sa growth 42C | Sa growth 42C second temp | GIV-Gai inh |
| --- | --- | --- | --- | --- |
| CCOC(=O)c1[nH]c(C)c(C(=O)OCc2nnc(-c3ccc(Cl)cc3)o2)c1C | -4 | 110 | 99 | x |
| CC1CN(C(=O)Nc2ccc(Cl)cc2)c2ccccc2O1 (stereo not given) | x | 93 | 74 | 101 |
| COc1cccc(OC)c1/C(O)=C(\C#N)c1nc2ccccc2s1 | -24 | 1.4* | -1.0* | 113 |

Additional compounds
SMILES	HCMV NEC inh	Sa growth 42C	Sa growth 42C second temp	GIV-Gai inh
COc1ccc(OC)c(NC(=O)CN(C)S(=O)(=O)c2ccc(C(=O)N3CCOCC3)s2)c1	x	99	87	107
CCOC(=O)c1cc2ccc(OC)c(OC)c2c(=O)s1	-73	90	76	101
Nc1cc(-c2nc3ccccc3o2)ccc1Cl	-17	96	76	105
Cc1ccc(OCC(=O)Nc2ccc(OCc3cc(=O)n4ccsc4n3)cc2)cc1C	4	102	87	110
c1ccc(CSc2ccc(-c3ccco3)nn2)cc1	x	102	61	104
CC(=O)Nc1ccc(S(=O)(=O)NCC2CCN(CC3CCCCC3)CC2)cc1	-4	112	85	102
O=C(Nc1ccc(Br)cc1)C1CCCN(c2ccnc(-c3ccc(F)cc3)n2)C1 (stereo not given)	-6	x	x	109
Cc1ccc(N(Cc2ccco2)C(=O)c2cc3ccccc3oc2=O)cc1	-3	99	97	111
COc1ccccc1NC1=NC(CO)(CO)CS1	-32	82	83	98
Cc1ccccc1/[N+]([O-])=C/c1cccs1	-56	86	87	x
O=C(CSc1nnc(-c2ccco2)o1)NC(c1ccccc1)c1ccccc1	-8	91	71	104
CC(O)c1nc2ccccc2n1Cc1ccccc1 (stereo not given)	2	87	106	101
COc1ccc(C(c2c(O)cc(C)n(Cc3ccco3)c2=O)N2CCCCC2)cc1OC (stereo not given)	x	86	85	97
Cc1cc2c(cc1S(=O)(=O)N1CCCC(C(=O)N3CCN(C)CC3)C1)OC(C)C(=O)N2 (stereo not given)	-15	x	x	99
N#CNC(N)=Nc1ccccc1	-4	107	95	102
Cc1ccc2cc3cc(C(=O)N4CCN(c5ccccc5)CC4)sc3nc2c1	-13	110	91	103
Cc1cccc(C(=O)Nc2cc(C(F)(F)F)ccc2-n2cncn2)c1	-16	84	87	x
CSc1ncc(Cl)c(C(=O)Nc2ccc(NC(C)=O)cc2)n1	-29	104	82	100
O=C(CCSc1nnc2sc3ccccc3n12)Nc1cccnc1	-4	78	86	x
Cc1ccc(C(=O)COC(=O)c2ccc(N3C(=O)c4c(C)nc5ccccc5c4C3=O)cc2)cc1	18	x	x	97
CC(C(=O)O)N1C(=O)CCC1=O (stereo not given)	-1	93	86	x
CC(=O)N1CCCSc2ccc(S(=O)(=O)NCCCN3CCOCC3)cc21	-6	x	x	99
CCOC(=O)Cc1csc(NC(=O)CC)n1	13	103	101	x
O=C(NCCN1CCOCC1)c1ccco1	-11	82	94	x
COc1ccc(C2CC(c3c(-c4ccccc4)c4cc(Cl)ccc4[nH]c3=O)=NN2C(=O)CCC(=O)O)cc1 (stereo not given)	-14	x	x	107
SMILES	HCMV NEC inh	Sa growth 42C	Sa growth 42C second temp	GIV-Gai inh
Cc1cccc(-n2c(SCC(=O)NCCc3ccccc3)nc3n[nH]c(C)c3c2=N)c1	1	105	91	x
Cc1ccc(CCNC(=O)c2ccc3c(c2)N(Cc2cccc(F)c2)C(=O)c2ccccc2S3)cc1	x	114	87	102
O=C(O)Cn1cc(/C=C2\C(=O)NN(c3ccccc3)C2=O)c2ccccc21	-81	111	91	x
CC(C)c1ccc(S(=O)(=O)Nc2cc(C(=O)O)cnc2N2CCC(Cc3ccccc3)CC2)cc1	5	x	x	105
CCN(CC)C(=O)CC(c1ccc(F)cc1)c1ccco1 (stereo not given)	-2	99	86	101
Cc1ccc(N2C(=O)N(CC(N)=O)c3ccccc3S2(=O)=O)cc1	-30	93	84	102
COc1ccccc1NC(=O)CSCc1cc(=O)c2cccc(Cl)c2[nH]1	x	78	86	108
O=C(NCC1CCN(Cc2cccc(Cl)c2)CC1)Nc1cc(Cl)ccc1Cl	61	104	82	103
CCOc1ccc(-n2nc(CO)c(C(=O)NCCCc3ccccc3)n2)cc1	7	80	92	105
